TRPML1 agonist – qHTS for Agonists of the Human Mucolipin Transient Receptor Potential 1 (TRPML1); Mucolipin-1 (Homo sapiens), Q9GZU1; TRPML1-expressing cells, Ca2+ dye fluorescence, FDSS; host cell line not named in the record; reference of the full effect not given here; activation, % (test concentration not listed); 0.12% of 410,000 active; in the data active = activation above about 50%; inconclusive = about 30% to 50%; inactive = below about 30%; further: 0% is about no effect; the text of the record puts the active cut at 80%
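Tet-induced TRPML1-DL cells, 1,500 per well, cultured overnight, were loaded with a no-wash Ca2+ dye for 45–90 min. Calcium fluorescence was recorded on the FDSS for 110 s after compound addition, before the EC80 agonist (4 uM 54-4) was added.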
CtBP-E1A inh – qHTS Assay for Inhibitors of the CtBP/E1A Interaction; CtBP / adenovirus E1A interaction (AlphaScreen); AlphaScreen GST-E1A/His-CtBP binding, 1536-well; stronger effect = lower value; control for the full effect not named in the record; 0.49% of 340,000 active; activity change, % (test concentration not listed); AID 651724, 2012; in the data active means activity change below about -65%; inconclusive means about -30% to -65%; inactive means above about -30%; further: on the % scale 0 is the no-effect control and ±100 the full control effect; compound concentration not given in the record
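AlphaScreen with 125 nM GST-E1A and 125 nM His-CtBP (5X stocks) in Tris pH 8.0, 300 mM NaCl, BSA, Tween 20, TCEP. Compounds preincubated 2 h at 37 deg C, then glutathione donor/nickel acceptor beads added for 1 h at 37 deg C in dark.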
PINK1 modulator – A Quantitative High throughput Screen to Identify Chemical Modulators of PINK1 Expression; PINK1 immunofluorescence, high-content cytometry, 24 h; Potency, µM (highest dose often 76.6 µM), for inactives: at the highest dose activation (PINK1 increase), hits mostly activators; 0.2% of 410,000 active; active = well fitted activation curve with a large enough effect; inconclusive = small, poorly fitted or top-dose-only effect; inactive = flat fitted curve, though single readings scatter; cell line not stated here;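 further: potency means the concentration at half of the fitted maximal effect; % of control where 0% means no effect; nearly all actives have a fitted effect of over 65% in size; a mitochondrial uncoupler was the plate control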
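Stable cell line, 250 cells/well, 12 h attachment; compounds pinned at 5 concentrations, 24 h; CCCP control. Fixed with nuclear dye, primary antibodies 12 h at 10 degrees C, secondary plus cell stain; laser-scanning cytometer read.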
D2 PAM – Beta-Arrestin HTS for Positive Allosteric Modulators of the Human D2 Dopamine Receptor: Potentiators; DiscoveRx D2 beta-arrestin cells, luminescence, 90 min; 100% = 57 uM dopamine signal; AID 624464, 2012; D(2) dopamine receptor (Homo sapiens), P14416; potentiation, % (no concentration beside the values); 0.23% of 360,000 active; active = potentiation of 50% or more; inconclusive = 30% to 50%; inactive = 30% or less;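 further: compound concentration not given in the record; tested on top of an EC20 dose of dopamine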
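PathHunter beta-arrestin assay in DiscoveRx D2 cells. Compounds were added with an EC20 of dopamine (50 nM final) for 90 min at 37 deg C. Luminescence was read 1 h after detection reagent, with 57 uM dopamine as the EC100 control.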
Six1-Eya2 blk – qHTS Assay for Inhibitors of the Six1/Eya2 Interaction. Homeobox protein SIX1 (Homo sapiens) + Protein phosphatase EYA2 (Homo sapiens), …. AID 651725, 2012. AlphaScreen GST-Six1/His-Eya2 binding, biochemical; stronger effect = lower value; control for the full effect not named in the record. activity change, % (test concentration not listed). 0.56% of 360,000 active; in the data active = activity change below about -65%; inconclusive = about -30% to -65%; inactive = above about -30%; further: on the % scale 0 is the no-effect control and ±100 the full control effect; compound concentration not given in the record
Target sequence (O00167 whole entry, looked up): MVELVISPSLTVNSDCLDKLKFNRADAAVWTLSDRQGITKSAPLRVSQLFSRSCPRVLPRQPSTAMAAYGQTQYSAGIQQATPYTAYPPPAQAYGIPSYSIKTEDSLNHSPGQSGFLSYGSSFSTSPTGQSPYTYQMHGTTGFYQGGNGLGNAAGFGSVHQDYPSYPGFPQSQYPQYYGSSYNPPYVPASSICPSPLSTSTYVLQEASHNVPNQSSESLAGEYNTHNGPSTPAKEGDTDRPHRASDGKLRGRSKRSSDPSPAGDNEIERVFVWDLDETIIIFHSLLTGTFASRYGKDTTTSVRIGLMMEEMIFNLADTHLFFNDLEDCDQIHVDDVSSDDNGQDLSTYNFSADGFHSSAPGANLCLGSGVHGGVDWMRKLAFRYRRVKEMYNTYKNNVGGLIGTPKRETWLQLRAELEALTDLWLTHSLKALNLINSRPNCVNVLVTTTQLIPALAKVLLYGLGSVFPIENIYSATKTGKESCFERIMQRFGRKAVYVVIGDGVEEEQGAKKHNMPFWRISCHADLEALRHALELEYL
Target sequence (Q15475 whole entry, looked up): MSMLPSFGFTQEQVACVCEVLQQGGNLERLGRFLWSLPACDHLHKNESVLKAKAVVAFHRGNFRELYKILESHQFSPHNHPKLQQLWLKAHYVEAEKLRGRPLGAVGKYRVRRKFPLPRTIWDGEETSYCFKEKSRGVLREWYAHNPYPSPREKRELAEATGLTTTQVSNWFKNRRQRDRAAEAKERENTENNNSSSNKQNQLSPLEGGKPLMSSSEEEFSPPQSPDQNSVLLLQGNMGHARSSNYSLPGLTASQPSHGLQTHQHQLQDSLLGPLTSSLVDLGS
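Homogeneous AlphaScreen proximity assay pairing GST-Six1 with His-tagged Eya2 (added as 5X mix: 250 nM and 500 nM) in 50 mM Tris pH 8.0, 300 mM NaCl, 1 mM TCEP. Glutathione donor and nickel acceptor beads; 1 h, 37 °C, dark.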
D2 agonist – Beta-Arrestin HTS for Positive Allosteric Modulators of the Human D2 Dopamine Receptor: Agonists; D(2) dopamine receptor (Homo sapiens), P14416; DiscoveRx PathHunter D2 beta-arrestin, luminescence, 90 min; 100% = 57 uM dopamine signal; activation, % (no concentration beside the values); 0.084% of 360,000 active; in the data active = activation above about 40%; inconclusive = about 15% to 40%; inactive = below about 15%; further: compound concentration not given in the record; the text of the record calls up to 30% inactive
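Agonist mode: compounds alone added to overnight-plated D2 PathHunter cells for 90 min at 37 C, with 57 uM final dopamine (EC100) defining full response. Beta-arrestin recruitment detected by chemiluminescent reagent, read after 1 h at ambient temperature.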
The depositor's hits bear a star; u = inconclusive; x = no result given; [ ] = dose if it differs, or a comment. No enrichment for hits; 1.3% or so of the library scored in one or more.

nr	canonical_smiles	TRPML1 agonist	CtBP-E1A inh	PINK1 modulator	D2 PAM	Six1-Eya2 blk	D2 agonist
1	CC(C)(C)C(=O)Nc1ccc(C(=O)COC(=O)C2=COCCO2)cc1	-0.1	1	6.1%	-25	7	-5.2
2	CC(C)NC(=O)COC(=O)c1cc(F)c(F)cc1Cl	4.6	-1	-2.9%	6	2	-1.3
3	O=S(=O)(c1cc(Cl)ccc1Br)N1CCOCC1	0.5	11	-3.9%[38.3 µM]	-17	4	-0.1
4	Cc1ccccc1S(=O)(=O)Nc1nc2ccccc2nc1NCCO	-0.6	-3	0.8%	22	10	-1.8
5	O=C(OC1Cn2c(=O)ccc(=O)n2C1)c1ccc([N+](=O)[O-])cc1	0.3	-14	-0.6%	-15	1	1.2
6	CCOc1ccc(NC(=S)N2CCCN(Cc3cccc(Cl)c3)C2)cc1	-0.6	-13	0.5%	-24	-13	-5.4
7	O=C(CN1CCC(n2nnc3cc(F)ccc32)CC1)N1CCc2ccccc2C1	-0.6	10	-3.4%[38.3 µM]	-22	-6	2.0
8	CCC1(C)Cc2ccccc2/C(=C/C(=O)N2CCCCC2)N1 (stereo unspecified)	-0.3	11	0.1%	-19	-8	-6.1
9	COc1ccccc1CN1CC(C(=O)NCc2cnn(C)c2)CCC1=O (stereo unspecified)	0.7	4	0.5%	-12	3	2.0
10	Cc1ccc(NC(=O)CN2C(=O)S/C(=C\c3cccn3-c3cccc(C(=O)O)c3)C2=O)cc1C	-0.2	2	3.5%	0	-4	-4.9
11	O=C1C=C(N2CCOCC2)c2ccccc2C1=O	-0.5	-24	-0.5%	2	u	u
12	CCOC(=O)c1c(NC(=O)C2c3ccccc3Oc3ccccc32)sc(C(C)=O)c1C	0.9	8	-0.2%[38.3 µM]	-4	-3	-2.1
13	Cc1ccccc1-c1nc(CN2CCC(C(=O)NCCC3=CCCCC3)CC2)c(C)o1	0.4	-12	x	-19	-2	-6.0
14	CC1(C(=O)NS(=O)(=O)c2ccccc2C(F)(F)F)CCN1C(=O)CCc1cccs1 (stereo unspecified)	-0.8	2	0.1%	2	4	-3.4
15	CCOCCCNC(=O)C(NC(=O)CC1NC(=O)NC1=O)c1ccc(Cl)cc1 (stereo unspecified)	-0.9	0	-0.4%	-12	-2	-5.0
16	O=C(Nc1ccc(F)cc1F)N1CCN(C/C=C/c2ccccc2)CC1	-0.4	-1	-0.6%	-7	-1	-5.0
17	O=c1c2c(-c3ccc(Cl)cc3)csc2ncn1/N=C/c1cccc([N+](=O)[O-])c1O	1.8	3	-0.3%	-20	-7	-0.6
18	CC(C)n1cc(CNC(=O)C2CCC(=O)N(Cc3ccccc3F)C2)cn1 (stereo unspecified)	-0.3	6	-0.8%	-5	4	0.5
19	Cc1cc(C(=O)Nc2cccc(-c3ccc(N4CCOCC4)nn3)c2)ccc1[N+](=O)[O-]	-1.0	u	-0.5%	11	u	-0.8
20	O=S(=O)(NC1CC2CCC1C2)c1ccc(Br)cc1 (stereo unspecified)	1.0	-6	1.6%	-5	-10	2.6
21	CCOC(=O)CC(NC(=O)c1cc2cccc(OC)c2oc1=O)c1cccc([N+](=O)[O-])c1 (stereo unspecified)	0.4	0	0.0%	-4	0	-1.7
22	CC(=O)c1ccc(-n2c(-c3cc(-c4ccsc4)n[nH]3)n[nH]c2=S)cc1	0.0	-2	-0.6%	-11	-3	2.4
23	COCC(=O)N=Nc1c(O)[nH]c2ccccc12	0.3	x	0.3%	-5	-2	0.6
24	NC(=O)CSc1nnc(-c2ccncc2)n1CCc1ccccc1	0.7	0	-0.2%	-21	-2	-2.7
25	C=CCn1c(SCCN2C(=O)c3ccccc3C2=O)nc2scc(-c3ccccc3)c2c1=O	0.2	4	x	0	1	4.1
26	CN(C)C(CNC(=O)C1CCN(S(=O)(=O)c2cccc(Cl)c2Cl)CC1)c1ccccc1 (stereo unspecified)	-0.7	3	-1.2%	-17	10	-1.2
27	O=c1[nH]c(CSc2nnnn2-c2ccccc2)nc2ccccc12	-0.3	0	4.6%	-1	3	-4.5
28	CC(C)(C)OC(=O)N(CCc1ccccc1)Cc1cccc(OCc2cccc(NC(=O)C3CCCC3)c2)c1	1.7	2	0.5%	-3	1	-0.3
29	S=C(Nc1cccc(Cl)c1)N(CCCN1CCCC1)Cc1cccn1Cc1ccc(Cl)cc1	0.3	-7	-1.4%	-13	-12	-1.2
30	CCOc1ccc(C(=O)COC(=O)Cn2[nH]c(=O)c3ccccc3c2=O)cc1	0.6	4	0.5%	6	-1	-2.1
31	Cc1ccc(NC(=O)[C@@H](NC(=O)c2cccc(S(=O)(=O)N3CCOCC3)c2)C(C)C)cc1C	0.2	5	8.7%	0	3	0.4
32	Cc1ccc(/C=N/NC(=O)c2ccc(-n3cccc3)cc2)o1	-0.6	-21	4.1%	-17	-20	-3.0
33	Cc1c(NC(=O)C2CCN(S(=O)(=O)c3ccccc3)CC2)c(=O)n(-c2ccccc2)n1C	-1.2	-3	-1.3%	-11	-3	-4.9
34	COc1cccc(OCC(=O)Nc2ccc(OC)c(OC)c2)c1	0.6	2	1.4%	-1	3	-0.3
35	CCOC(=O)C1CCCN(CCC(C)c2ccccc2)C1 (stereo unspecified)	0.2	18	-3.0%[38.3 µM]	-16	4	4.1
36	O=C(N/N=C\c1cccnc1)C1c2ccccc2Oc2ccccc21	3.8	x	1.8%	-8	-12	-1.7
37	O=C(NCc1ccco1)C(C(=O)c1ccc(F)cc1)n1ccccc1=O (stereo unspecified)	-0.2	5	-1.3%	-1	-1	0.9
38	Cc1ccc(S(=O)(=O)N(C)c2c(C)ccc(S(=O)(=O)NC(C)(C)C)c2C)cc1	2.3	16	-0.6%	-6	1	-1.8
39	CC(=O)Nc1ccc(NC(=O)c2ccco2)cc1	0.3	1	0.6%	4	3	0.8
40	Cc1ccc(C(C[N+](=O)[O-])c2c(N)n(C)c(=O)n(C)c2=O)cc1 (stereo unspecified)	0.5	3	-1.7%	1	5	-2.7
41	CCCc1cc(=O)oc2cc(OCC(=O)Nc3ccc(S(N)(=O)=O)cc3)ccc12	0.0	x	1.0%	-6	2	-25
42	Cc1ccc(S(=O)(=O)Cn2nnnc2CN(Cc2ccco2)Cc2cccs2)cc1	1.0	-3	-0.3%	-17	-6	-4.0
43	CC[C@]12c3[nH]c4ccc(OC)cc4c3CCN1C(=O)C(CC(=O)NC/C=C(\C)CCC=C(C)C)C[C@@H]2C(=O)N1CCN(C(=O)c2ccco2)CC1 (stereo partly specified)	-0.5	-19	0.2%	x	-3	0.6
44	O=S(=O)(c1ccc2c(c1)OCCO2)N1CCC(n2cnc3cc(F)ccc32)CC1	1.4	-15	-1.6%	4	-9	4.0
45	COc1ccc(-n2nnnc2SCC(=O)c2ccc3c(c2)OCCO3)cc1	0.5	0	5.8%	-4	24	-4.2
46	CN(NC(=O)C1CC(=O)N(c2ccccc2)C1)C1=NS(=O)(=O)c2ccccc21 (stereo unspecified)	0.0	-11	-3.5%	4	2	-4.3
47	O=C1NC(NS(=O)(=O)c2ccccc2)(C(F)(F)F)C(=O)N1c1cccc(Cl)c1 (stereo unspecified)	0.5	0	2.1%	0	-7	0.1
48	COCC(C)N1CCC(Oc2cccc(C(=O)NCCc3ccccc3)c2)CC1 (stereo unspecified)	0.5	6	-1.5%	-16	1	0.0
49	COc1cc(C(=S)N2CCN(c3cccc(Cl)c3)CC2)ccc1O	0.8	-10	5.5%	21	-18	u
50	O=S(=O)(NCCSc1ccccc1)c1ccc(F)cc1	0.0	4	-1.8%	-3	15	-2.3

Record cards, from the list above.
CC(C)(C)C(=O)Nc1ccc(C(=O)COC(=O)C2=COCCO2)cc1 in the list: TRPML1 agonist = -0.1; CtBP-E1A inh = 1; PINK1 modulator = 6.1%; D2 PAM = -25; Six1-Eya2 blk = 7; D2 agonist = -5.2
CN(NC(=O)C1CC(=O)N(c2ccccc2)C1)C1=NS(=O)(=O)c2ccccc21 (stereo unspecified) in the list: TRPML1 agonist = 0.0; CtBP-E1A inh = -11; PINK1 modulator = -3.5%; D2 PAM = 4; Six1-Eya2 blk = 2; D2 agonist = -4.3

The list continues.
nr	canonical_smiles	TRPML1 agonist	CtBP-E1A inh	PINK1 modulator	D2 PAM	Six1-Eya2 blk	D2 agonist
51	CCCOc1ccc(-c2nn(-c3ccccc3)cc2/C=C2\SC(N)=NC2=O)cc1C	4.2	5	u	-11	-3	0.0
52	O=C(Nc1ccccc1Cl)C1CCCN(S(=O)(=O)c2ccc(-n3cnnn3)cc2)C1 (stereo unspecified)	-0.6	5	0.8%	3	-3	6.6
53	Cc1cccc(NC(=O)c2ncn3c2C(=O)NC[C@@H]3C)c1	x	-29	1.2%	x	-10	-3.5
54	CC(NC(=O)COC(=O)c1nc(Cl)ccc1Cl)c1ccccc1 (stereo unspecified)	-0.5	2	0.3%	5	1	2.0
55	CC(NC(=O)c1ccc(Br)cc1)c1ccccc1 (stereo unspecified)	-0.3	14	3.1%	4	4	2.9
56	COc1ccc(C)cc1Nc1ccc(C(=O)O)cc1[N+](=O)[O-]	1.6	-3	2.3%	-10	-5	-4.3
57	CN1CCc2c(sc(/N=C/c3c[nH]c4ccccc34)c2C#N)C1	0.0	-15	3.3%	-20	-20	7.3
58	Cc1cc(Cl)ccc1NC(=O)NC1CCN(S(=O)(=O)c2ccc(F)cc2)CC1	0.3	2	1.2%	-20	-1	-3.4
59	C=CCN(CC=C)C(=O)c1ccc2nc(Cc3ccc(OC)c(OC)c3)oc2c1	0.1	2	2.3%	-4	-2	1.5
60	N#CCCN(C(=S)Nc1ccc(S(=O)(=O)N2CCOCC2)cc1)c1ccccc1F	0.0	-1	0.0%	-10	6	1.0
61	Cc1ccc(OC(=O)c2cc3ccccc3o2)cc1	3.5	25	2.7%	6	41	0.7

Quoted at random: three entries already listed.
nr	canonical_smiles	TRPML1 agonist	CtBP-E1A inh	PINK1 modulator	D2 PAM	Six1-Eya2 blk	D2 agonist
20	O=S(=O)(NC1CC2CCC1C2)c1ccc(Br)cc1 (stereo unspecified)	1.0	-6	1.6%	-5	-10	2.6
39	CC(=O)Nc1ccc(NC(=O)c2ccco2)cc1	0.3	1	0.6%	4	3	0.8
17	O=c1c2c(-c3ccc(Cl)cc3)csc2ncn1/N=C/c1cccc([N+](=O)[O-])c1O	1.8	3	-0.3%	-20	-7	-0.6

Screening data as filed in PubChem.
